LT uptake inh: qHTS Assay for Anthrax Lethal Toxin Internalization. Cells, anthrax lethal toxin internalization, FRET ratio (460/530). Potency, µM (titrated, usually from 40 µM), without a hit: top-dose activity change, negative = inhibition, most hits filed as inhibitors. hit rate 0.67% among 70,000; active = well fitted falling ratio curve with the 530 nm signal flat; inconclusive = other ratio curves, or a change in one channel alone; inactive = flat curves in the ratio and both channels; the % refers to the ratio; note: % is set by controls: 0 for no effect and ±100 for the full control effect; nearly all actives have a fitted effect of over 50% in size; tested in ME-180 cells; beta-lactamase reporter
SmPrx2 inh: Schistosoma Mansoni Peroxiredoxins (Prx2); Schistosoma mansoni peroxiredoxin 2 (Prx2); Potency, µM; hit rate 0.07% among 65,000; S. mansoni Prx2 activity coupled to TGR/GSH (TGR is thioredoxin glutathione reductase), NADPH fluorescence loss, qHTS; some inactives read as strong as hits; AID 448, 2006; active means full or partial inhibition curve with a strong effect at the top dose; inconclusive means weaker partial or single-point curve; inactive means no accepted curve; note: series up to 57 µM; many of its hits are not listed in these tables
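Activity is read as the drop in NADPH fluorescence (365/450 nm), recorded every 30 sec for 8 min after H2O2 addition. Prx2 is coupled to TGR-driven NADPH oxidation through glutathione, in phosphate buffer pH 7.4.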
Active calls of the source: *; u = inconclusive; x = no result given; [ ] = another dose, or the depositor's remark. Potency is the fitted concentration of half-maximal effect.

SMILES | LT uptake inh | SmPrx2 inh
COC(=O)[C@@]1(Cc2ccc(F)cc2)[C@H]2c3cc(C(=O)N(C)C)n(CCc4ccc(OC)c(Br)c4)c3C[C@H]2CN1C(=O)c1ccccc1 | u | >57
CCOC(=O)c1[nH]c2c(c1C)C(=O)CC(c1ccc(OC)c(OC)c1)C2 (stereo not given) | 10.4% | >57
CCCCn1c(=O)c(-c2ccccc2)c(O)c2ccccc21 | 6.0% | >57
CCCCC(CC)CNS(=O)(=O)c1ccc2c(c1)CCN2C(=O)CCC(=O)O (stereo not given) | -17.7% | >57
COc1cc(S(=O)(=O)N2CCN3CCCC3C2)ccc1-n1cnnn1 (stereo not given) | -19.9% | >57
O=C(COC(=O)c1ccc(S(=O)(=O)NCc2ccco2)cc1)NCCC1=CCCCC1 | -9.1% | >57
O=C(O)CCn1c(C2CCCCC2)nc2ccccc21 | u | >57
CCN(CC)c1ccc(NC(=O)c2cc(OC)cc(OC)c2)c(C)c1 | u | >57
COC(=O)c1ccc(S(=O)(=O)c2ccc(C(=O)OC)s2)s1 | 16.8% | x
Cc1cc(=O)n2nc(N3CCCC3C(=O)NCCCN3CC(C)CC(C)C3)sc2n1 (stereo not given) | -6.4% | >57
NC(=S)c1ccc(C(N)=S)o1 | -0.5% | >57
O=[N+]([O-])c1ccc(CS(=O)Cc2ccccc2)cc1 (stereo not given) | -2.2%[8 µM] | >57
CCOC(=O)C1=C(O)C(Nc2nccs2)(C(F)(F)F)N=C1C (stereo not given) | 1.1% | >57
COc1ccc(S(=O)(=O)N2CCN(C(=O)CCC3CCCC3)CC2)cc1 | -3.3% | >57
COc1ccc(-c2nnc(CSc3nc4ccccc4c(=O)n3C)o2)cc1OC | 1.9% | >57

The last 4 compounds of the section above lead into the next:
SMILES | LT uptake inh | SmPrx2 inh
O=[N+]([O-])c1ccc(CS(=O)Cc2ccccc2)cc1 (stereo not given) | -2.2%[8 µM] | >57
CCOC(=O)C1=C(O)C(Nc2nccs2)(C(F)(F)F)N=C1C (stereo not given) | 1.1% | >57
COc1ccc(S(=O)(=O)N2CCN(C(=O)CCC3CCCC3)CC2)cc1 | -3.3% | >57
COc1ccc(-c2nnc(CSc3nc4ccccc4c(=O)n3C)o2)cc1OC | 1.9% | >57
CC(=O)OCCNc1cc(N2CCN(C)CC2)c2noc3c2c1C(=O)c1ccccc1-3 | -10.7% | >57
Cc1cc(NC(=O)CSc2nc3ccccc3c(=O)n2Cc2ccc(F)cc2)no1 | 7.0% | >57
CC(C)NC(=O)Cn1cc(C#N)c2cc(Br)ccc21 | -3.9% | >57
O=C(NCc1ccco1)c1ccc2c(c1)N(Cc1ccccc1)C(=O)CS2=O (stereo not given) | 3.6% | >57
O=C(NC(=O)c1ccccc1)NC1(C(F)(F)F)OCCO1 | -4.2% | >57
ClC(Cl)C(Cl)Cl | -12.1% | x
O=C(NCc1ccc2c(c1)OCO2)C1CCCN1C(=O)Nc1cccc(F)c1 (stereo not given) | -8.3% | >57
COc1cc(C(=O)OCC(=O)Nc2ccc3c(c2)OC(F)(F)O3)ccc1OCc1c(C)noc1C | -15.5% | >57
CCn1c(COc2ccccc2OC)nnc1SCC#N | 4.0% | >57
CN(C)S(=O)(=O)N1CCN(c2ccc(Cl)cc2)CC1 | -16.8% | >57
Cc1cnc(C(=O)OCC(=O)Nc2ccc(Oc3ccccc3)cc2)cn1 | 10.9% | >57
COCC(=O)N(Cc1ccccc1)c1ccccn1 | 14.3% | >57
CCOC(=O)Cn1nnnc1C(CC)N(Cc1cc2c(C)cc(C)cc2[nH]c1=O)C1CCCC1 (stereo not given) | 3.8% | >57
O=C(CSc1nc2ccccc2[nH]1)N1CCN(c2ccc(F)cc2)CC1 | -2.4% | >57
Fc1ccccc1N1CCN(C(c2cccs2)c2nnnn2CCc2ccccc2)CC1 (stereo not given) | u | >57

Complete entries, looked up by structure. Values in the order: LT uptake inh | SmPrx2 inh
CC(=O)OCCNc1cc(N2CCN(C)CC2)c2noc3c2c1C(=O)c1ccccc1-3 in the list: -10.7% | >57
COc1cc(C(=O)OCC(=O)Nc2ccc3c(c2)OC(F)(F)O3)ccc1OCc1c(C)noc1C in the list: -15.5% | >57
CCn1c(COc2ccccc2OC)nnc1SCC#N in the list: 4.0% | >57
Cc1cnc(C(=O)OCC(=O)Nc2ccc(Oc3ccccc3)cc2)cn1 in the list: 10.9% | >57
O=C(NCc1ccc2c(c1)OCO2)C1CCCN1C(=O)Nc1cccc(F)c1 (stereo not given) in the list: -8.3% | >57

More results.
SMILES | LT uptake inh | SmPrx2 inh
O=C1C2C3CCCC3=C3CCCC3C2C(=O)N1c1cccc(Cl)c1 (stereo not given) | u | x
COc1cc(N2CCOCC2)ncn1 | -10.5% | >57
COC(=O)c1ccc(C(NC(=O)OCc2ccccc2)/C(=C/[C@@H](C)C(=O)NCc2nc3ccccc3n2C)c2cccnc2)cc1 (stereo not given in full) | 6.1% | x
CC(=O)c1ccc(NC2c3ncccc3C(=O)N2Cc2ccc(F)cc2)cc1 (stereo not given) | 2.2% | >57
OCCN(CC#CC(O)(c1ccccc1)C1CCCC1)CCO (stereo not given) | -10.6% | >57
O=c1c2ccccc2nnn1CSc1nnc(COc2ccc(Cl)cc2)n1Cc1ccco1 | -13.2% | >57
Cc1ccccc1C1CC(=O)NC2=C1C(=O)CCC2 (stereo not given) | 14.2% | >57
CCOc1ccc(N2CC(C(=O)NCc3cccc(C)c3)CC2=O)cc1 (stereo not given) | 10.6% | >57
CC(Cc1ccccc1)C(=O)NCCc1c[nH]c2ccccc12 (stereo not given) | u | x
CCOC(=O)c1cc2c(=O)n3cccc(C)c3nc2n(Cc2ccccc2Cl)c1=N | 0.9% | >57
O=C(C(c1ccccc1)c1ccccc1)N1CCOCC1 | -10.6% | x
O=C1CC(c2ccco2)CC(O)=C1C=NCC1CCNCC1 (stereo not given) | -19.0% | x
CCOc1ccc(N2C(=O)CC(N3CCC(NC(=O)Nc4ccccc4)CC3)C2=O)cc1 (stereo not given) | 6.1% | >57
Cn1cccc1Cc1nnc(SCC(=O)NCc2ccco2)n1CCc1ccccc1 | -6.7% | >57
CC(C)(C)NC(=O)C(Cc1ccccc1)NS(=O)(=O)c1ccc2c(c1)CCC(=O)N2 (stereo not given) | 6.1% | >57
N#CC1=C2SCN(Cc3ccco3)CN2C(=O)CC1c1c(F)cccc1Cl (stereo not given) | -10.7% | >57
O=C(Nc1ccc2c(c1)OCO2)C1CCN(S(=O)(=O)c2cccs2)CC1 | -10.3% | >57
CS(=O)(=O)N1CCc2cc(C(=O)O)ccc21 | 2.5% | >57
CCCCCCN(C(=O)CCCCCN1C(=O)NC(c2ccc(-c3ccccc3)cc2)C(C(=O)OCc2ccccc2)=C1C)C(C)C(=O)NCCCC (stereo not given) | 3.4% | x
O=C(Cn1cc(C(=O)COc2ccccc2)c2ccccc21)NCc1ccco1 | -28.7% | >57
COc1ccc(/C(O)=C2/C(=O)C(=O)N(CCN(C)C)C2c2ccc(C)cc2)cc1Cl (stereo not given) | -6.1% | >57
CC1=CS/C(=C(/C#N)C(=O)N2CCCCC2)N1c1ccccc1 | 1.7% | x
CC(=O)N1C2(C=CC1(C)C(=O)NCc1cc(F)cc(C(F)(F)F)c1)CCCCC2 (stereo not given) | u | x
CCOc1ccccc1N(C(=O)CNC(=O)c1ccco1)C(C(=O)NC1CCCC1)c1cccnc1 (stereo not given) | -4.1% | >57
COc1ccccc1Oc1ccc(S(=O)(=O)N2CCCC2)cc1 | 4.9% | >57
COc1ccc(C(C(=O)NC2CCCC2)N2CCc3ccccc32)cc1 (stereo not given) | -16.3% | >57
CCN1C[C@@]2(COC)[C@H](O)C[C@H](OC)[C@@]34[C@@H]5C[C@@]6(O)[C@H](OC(=O)c7ccccc7)[C@H]5[C@@](OC(C)=O)([C@H]([C@@H](OC)[C@H]23)[C@H]14)[C@H](O)[C@@H]6OC | u | >57
Cn1c(O)c(C=NCc2cccs2)c(=O)n(C)c1=O | -3.3% | x
O=C(NCc1cccnc1)C1CCN(S(=O)(=O)c2cccnc2)CC1 | -0.9% | >57
Cc1ccc(C2c3c(oc4cc(C)c(C)cc4c3=O)C(=O)N2CCCN2CCOCC2)cc1 (stereo not given) | 4.9% | >57
NC(=O)[C@@H]1CCCNC1 | 2.7%[8 µM] | >57
Cc1ccc(S(=O)(=O)n2c3ccccc3c3nnc(C(=O)c4ccccc4)nc32)cc1 | 9.1%[8 µM] | x
CCOC(=O)c1[nH]c2ccc(Br)cc2c1NC(=O)CCN1CCCCC1 | u | >57
O=C(Nc1cccc(F)c1)N1CC[C@@]2(CCCN(C(=O)c3csnn3)C2)C1 | -3.9% | >57
Cc1ccc(-n2c3c(cc(C(=O)NC4CCSC4=O)c2=O)C(=O)CC(C)(C)C3)cc1 (stereo not given) | u | x
O=C(CSc1nnc(Cc2ccccc2)o1)N1CCCc2ccccc21 | 3.9% | >57
CCOc1ccc(OCC)c(NC(=O)CN2CCC(NC(=O)c3cccc(F)c3)CC2)c1 | -3.3% | >57
C=CCn1c(N2CCCCCC2)nc2c1c(=O)n(C)c(=O)n2C | -15.4% | >57
O=C(O)c1cc(-c2ccccn2)n[nH]1 | 1.4% | >57
CN(C)CCC(c1ccccc1)c1ccccn1 (stereo not given) | -10.0% | x
CN(C)c1ccc(C2OC(=O)C3(CCCC3)C(=O)C2(C)C)cc1 (stereo not given) | u | >57
OB(O)c1csc2ccccc12 | 0.3% | x
CCC(C)NC(=O)CC(NS(=O)(=O)c1ccc(Cl)cc1)c1ccco1 (stereo not given) | 1.7% | >57
COc1cc2c(cc1NC(=O)CCCN1C(=O)CCC1=O)oc1ccccc12 | -8.2% | >57
C[C@H](c1ccccc1)N1CCN([C@@H](C)c2ccccc2)CC1 | -3.8%[8 µM] | >57
[N-]=[N+]=N[C@@H]1[C@H](O)[C@H](CO)O[C@@H]1n1cnc2c(N)ncnc21 | u | >57
Cc1cn(COC/C=C/c2ccccc2)c(=O)[nH]c1=O | 8.9% | >57
COCCc1nnc(NC(=O)Cc2ccccc2)s1 | -2.1% | >57
CCSc1nnc(Cn2c(=O)sc3ccccc32)n1-c1ccc(OC)cc1 | -8.8% | >57
CCc1cccc2c3c([nH]c12)[C@@](CC)(CC(=O)O)OCC3 | 3.9%[3.58 µM] | >57
COc1cc(O)c(C(=O)/C=C/c2ccccc2)c(O)c1 | -10.1%[8 µM] | x
CCOC(=O)c1ccc(N2C(=O)C(O)=C(C(C)=O)C2c2ccc(O)c(OC)c2)cc1 (stereo not given) | u | >57
O=C(CCCn1c(=O)oc2ccccc21)N1CCc2ccccc2C1 | -3.3% | >57
Cc1cc(C)nc(/N=C2\NC(=O)CC(C(=O)O)N2CCc2c[nH]c3ccccc23)n1 (stereo not given) | -19.1% | >57
Cc1ncc(C[n+]2csc(CCO)c2C)c(N)n1 | -1.2%[3.58 µM] | >25.6
Cc1ccc(S(=O)(=O)C2(C(=O)N3CCCC(C)C3)CC2)cc1 (stereo not given) | 8.3% | >57
CC1(C)S[C@@H]2[C@H](NC(=O)[C@H](C(=O)O)c3ccsc3)C(=O)N2[C@H]1C(=O)O | 0.1%[3.58 µM] | >57
CCCC1(C(=O)O)NC(c2ccccc2O)C2C(=O)N(Cc3ccccc3)C(=O)C21 (stereo not given) | -1.0% | >57
Cc1cccc(-n2c(O)c(C=Nc3c(C)n(C)n(-c4ccccc4)c3=O)c3ccccc3c2=O)n1 | -0.3% | >57
CCCCOC(=O)n1ccc(C(=O)Nc2ccccc2OC)n1 | 1.9% | >57

(cont.)
SMILES | LT uptake inh | SmPrx2 inh
Cc1cc(C)cc(OCC(=O)NCCN2CCOCC2)c1 | -17.2% | >57
Cc1cc(NC(=O)CSc2nc(C3CCCCC3)nc3ccccc23)no1 | -17.3% | >57
Cc1ccc(NC(=O)COC(=O)Cn2c(C)csc2=O)cc1 | -4.4% | >57
CCOC(=O)c1sc(NC(=O)c2cccs2)cc1C | u | >57
Cc1cccc(N(CC(=O)Nc2c(C)n(C)n(-c3ccccc3)c2=O)S(C)(=O)=O)c1C | -6.1% | x
O=C(NCC(c1cccs1)N1CCOCC1)c1ccc(Cl)s1 (stereo not given) | -12.5% | >57
CCOC(=O)C1(CCSC)NC(c2ccco2)C2C(=O)N(C)C(=O)C21 (stereo not given) | -19.1% | >57
Cc1cc(C)n(-c2nnc(C)n2NS(=O)(=O)c2ccc(F)cc2)n1 | -17.6% | >57
CS(=O)(=O)N1CCC2(CCCN(Cc3ccncc3)C2)CC1 | 9.5% | >57
COc1ccc(NC(=O)C2CCCN(S(=O)(=O)c3c(C)n[nH]c3C)C2)c(OC)c1 (stereo not given) | 1.3% | >57
COCCN(CCOC)C(=O)c1sc2nc(-c3ccccc3)cn2c1C | -8.7% | >57
C=CCn1c(-c2cccc(Cl)c2)n[nH]c1=S | -9.8% | x
CCN(CC)S(=O)(=O)c1ccc(-c2nnc(SCC(=O)N3c4ccccc4CC3C)o2)cc1 (stereo not given) | -10.7% | >57
O=C(COC(=O)c1cccs1)NCC1CCCO1 (stereo not given) | 7.1% | >57
O=C(CCn1c(=O)oc2ccccc21)Nc1cccc(Cl)c1 | 6.2% | >57
CN1CCN(CCCNC(=O)c2ccc(CS(=O)(=O)c3ccc(Br)cc3)o2)CC1 | -1.9% | >57
CCCc1cc(=O)[nH]c(SCC)n1 | 2.2% | >57
CCOC(=O)CNc1nc(OCC#N)nc(N2CCOCC2)n1 | -3.2% | >57
O=[N+]([O-])c1cccc(O)c1 | 12.5% | x

Assay outcomes as filed in PubChem.

An excerpt; rates above refer to the full screens.
